Screening results from PubChem.
VDR inh – vitamin D3 receptor (human) inhibition; actives 0.93% (n = 400,000); Potency, µM, for inactives: max response, negative = inhibition, hits mostly inhibitors; P11473; VDR-SRC2-3 peptide fluorescence polarization, 2 h; active = well fitted inhibition curve with a large enough effect; inconclusive = small, poorly fitted or top-dose-only effect, or another doubt; inactive = no such curve, though single readings can be large or run the other way; also: series mostly up to about 120 µM
Target sequence (P11473 whole entry, looked up): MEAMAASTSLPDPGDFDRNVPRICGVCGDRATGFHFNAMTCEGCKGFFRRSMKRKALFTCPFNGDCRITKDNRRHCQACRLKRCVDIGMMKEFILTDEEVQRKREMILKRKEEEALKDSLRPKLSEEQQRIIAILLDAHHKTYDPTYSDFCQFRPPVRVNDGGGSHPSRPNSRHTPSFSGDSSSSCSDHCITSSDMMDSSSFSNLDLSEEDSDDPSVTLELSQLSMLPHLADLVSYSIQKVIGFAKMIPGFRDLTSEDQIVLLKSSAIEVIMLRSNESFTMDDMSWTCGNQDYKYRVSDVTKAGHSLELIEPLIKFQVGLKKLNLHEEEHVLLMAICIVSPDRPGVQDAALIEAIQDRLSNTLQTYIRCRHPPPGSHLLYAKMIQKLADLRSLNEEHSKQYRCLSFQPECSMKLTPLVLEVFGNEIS
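VDR–SRC2-3 interaction, FP format. Cmpds 23 nl via pintool, brief spin, 2 h ambient incubation.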
* marks the source's active call; other numbers are inactive results; ? = inconclusive; & = joins results of further samples. % is scaled to controls: 0 for no effect and ±100 for the full control effect; potency is read from the fitted curve at half-maximal effect. Only part of the results is shown; the hit share may differ from the screen's.

VDR inh | Compound
-11% | CC(C)CN(C[C@@H](OP(=O)(O)O)[C@H](Cc1ccccc1)NC(=O)O[C@@H]1CCOC1)S(=O)(=O)c1ccc(N)cc1
-1% | CCn1c(SCc2ccccc2)nnc1C1CCN(S(=O)(=O)c2ccc(OC)cc2)CC1
9% | COc1ccc(N(CC(=O)N2CCN(Cc3ccc4c(c3)OCO4)CC2)S(C)(=O)=O)cc1OC
4% | CCOC(=O)c1c(C)[nH]c(CCC(=O)NC(C)c2ccccc2)c1C (centres undefined)
8% | CC(=O)c1ccc(OCc2cc(C(=O)NC(C)CCn3cccn3)no2)cc1 (centres undefined)
-14% | Cc1csc(SCC(=O)NCCc2ccc(Cl)cc2)n1
2% | COCCn1nnnc1C(c1ccc(OC)cc1)N1CCC(C)CC1 (centres undefined)
1% | COc1ccc(N2CCN(C(=O)COC(=O)c3cnccn3)CC2)cc1
-20% | O=C(Nc1ncc(Cc2ccccc2Cl)s1)c1ccc([N+](=O)[O-])cc1
4% | O=C1NCC2=C1C(c1ccccc1)Nc1ccccc1N2 (centres undefined)
20% | CN(CC(=O)NCCc1ccccn1)S(=O)(=O)c1ccc(Cl)cc1
2% | Cc1ccc(S(=O)(=O)Nc2c(C)nn(C)c2C)c(C)c1
6% | Cc1cc(C)c2c(N)c(C(=O)NC3CCCC3)sc2n1
8% | O=C(Cc1ccc(F)cc1)N1CCC(c2nc3c(nnn3Cc3ccc(Cl)cc3)c(=O)[nH]2)CC1
-22% | CCNc1nc(NC(C)C)nc(SCCOC(=O)c2ccccc2)n1
4% | COc1cc(/C=N/NC(=O)Cc2csc(N3CCOCC3)n2)cc(OC)c1O
0% | O=C(CCOc1ccccc1)Nc1ccc([N+](=O)[O-])cc1
-12% | O=C(Nn1c(C2CCCCC2)nc2ccccc2c1=O)c1ccc([N+](=O)[O-])cc1Cl
5% | CC(C)CCNc1nc(N)c([N+](=O)[O-])c(NCCO)n1
-5% | O=C(NN1C(=O)C2C3C=CC(C4CC34)C2C1=O)c1cccc(Cl)c1 (centres undefined)
-14% | CCOC(=O)c1nnn(-c2nonc2N)c1CN1CCCCCC1
1% | Cc1cccc(NC(=O)c2cccc(C(=O)Nc3cccc(C)c3C)n2)c1C
11% | Cc1ccc(CNC(=O)Cn2nnc(C(=O)Nc3cc(C)ccc3C)c2N)cc1
-23% | CCC/C(=C1/c2ccccc2C(=O)N1c1ccccc1)c1cnc(OC)nc1
5% | O=C(Nc1ccc(O)c(C(=O)O)c1)c1ccc2c(c1)C(=O)N(CC1CCCO1)C2=O (centres undefined)

Brought forward from above: 5 compounds; new compounds follow.
VDR inh | Compound
-14% | CCOC(=O)c1nnn(-c2nonc2N)c1CN1CCCCCC1
1% | Cc1cccc(NC(=O)c2cccc(C(=O)Nc3cccc(C)c3C)n2)c1C
11% | Cc1ccc(CNC(=O)Cn2nnc(C(=O)Nc3cc(C)ccc3C)c2N)cc1
-23% | CCC/C(=C1/c2ccccc2C(=O)N1c1ccccc1)c1cnc(OC)nc1
5% | O=C(Nc1ccc(O)c(C(=O)O)c1)c1ccc2c(c1)C(=O)N(CC1CCCO1)C2=O (centres undefined)
0% | CCOC(=O)c1c(-n2cccc2)sc2c1CCCC2=O
22% | Cc1sc(NC(=O)CSc2nnc(COc3ccc(Cl)cc3)n2C)c(C#N)c1C
1% | Cn1cnnc1SCC(=O)NNC(=O)COc1ccc(Cl)cc1
2% | COC(=O)c1ccccc1NC(=O)Cn1c(=O)oc2ccc(Cl)cc21
-4% | O=C(NCC1CCCCC1)c1ccc(Cl)nc1
12% | O/N=C/c1ccc2cccc(OCc3ccccc3)c2n1
1% | Cc1ccc(/C=N/NC(=O)c2ccc(-n3cccc3)cc2)o1
18% | Cc1ccc(-n2ncc3c(=O)n(CC#N)cnc32)cc1C
-8% | CCC(=O)c1ccc(N2CCN(C(=O)c3cccs3)CC2)c(F)c1
-8% | Cc1cc(C)c(C#N)c(SCc2[nH]nc3c2C(c2ccc(F)cc2)C(C#N)=C(N)O3)n1 (centres undefined)
5% | COc1ccc(NC(=O)c2ccco2)cc1NC(=O)c1cc2ccccc2o1
-18% | CC1CCCN(c2nc(-c3ccccc3O)nc3ccccc23)C1 (centres undefined)
-6% | CCOc1ccccc1C1NC(=O)NC(C)=C1C(=O)OC1CCCC1C (centres undefined)
-26% | CCC(C)[C@H](NS(=O)(=O)c1ccc(C)cc1)C(=O)N1CCC(C(=O)N[C@@H](Cc2ccccc2)C(=O)O)CC1 (some centres undefined)
4% | COc1ccccc1NC(=O)Oc1ccc(NC(=O)c2ccco2)cc1
5%&-1% | O=c1c2ccccc2n2c(-c3cccc(F)c3)nnc2n1Cc1ccccc1
-28% | O=c1[nH]c(C2CCN(S(=O)(=O)c3cccc(Cl)c3)CC2)nc2c1nnn2Cc1ccccc1
-6% | COc1ccccc1-c1oc2ccccc2c1C#CC1(N)CCCCC1
-9% | c1ccc(-n2nc3c(ccc4cnnc43)[nH]2)cc1
3% | Cc1cc(C)nc(Nc2nc(C)c3cc4c(cc3n2)OCO4)n1
-6% | CS(=O)(=O)N1CCC(C(=O)Nc2ccc(F)cc2)CC1
7% | CCN(CCCNC(=O)Cn1cc2c(n1)CCCC2)c1cccc(C)c1
9% | CC(=O)Nc1ccc(NC(=O)COC(=O)c2cc(S(=O)(=O)N(C)C)ccc2N2CCCC2)cc1
7% | COc1cc(C(=O)N(CCc2ccccc2)C2=CC3CCC(C2)N3C)cc(OC)c1OC (centres undefined)
-10% | Cc1sc2nc(SCC(=O)N3CCN(CCO)CC3)n(-c3ccccc3)c(=O)c2c1C
20µM* | Nc1ccc(N2CCCCC2)c2nonc12
-9% | Cc1ccc(NC(=O)c2cn(CCC#N)nc2-c2cccs2)c([N+](=O)[O-])c1
0% | COCCn1c(=O)cnc2cnc(N3CCOCC3)nc21
4% | Cc1nc2oc3ccc(Cl)cc3c(=O)c2cc1C(=O)O
-15% | C[C@H](CO)N1C[C@H](C)[C@@H](CN(C)S(=O)(=O)c2ccccc2)Oc2ccc(NC(=O)Cc3ccccc3)cc2C1=O
4% | O=C(Nc1ccccc1[N+](=O)[O-])c1ccc(S(=O)(=O)N2CCCC2)cc1
-16% | CCOc1ccccc1N1CC(C(=O)NCCc2ccc(S(N)(=O)=O)cc2)CC1=O (centres undefined)
5% | Cc1cccc2sc(N(Cc3cccnc3)C(=O)Cc3ccccc3)nc12
-15% | Cc1oc2c(C)c(O)ccc2c(=O)c1-c1nncn1-c1ccccc1
-20% | COC(=O)c1sc(Nc2ccccc2)nc1C
0% | O=C(CCCCCBr)N1CCC(CC2CC(c3cccc(Br)c3)=NO2)(C(=O)NCC2CCCCC2)CC1 (centres undefined)
-5% | CCOc1ccc(C(=O)Nc2cc(OC)ccc2OC)cc1
? | CCCN1C(=O)/C(=C/c2ccncc2)SC1=S
-7% | CCOc1ccc(Br)cc1C1C(C(=O)OC)=C(C)NC2=C1C(=O)c1ccccc12 (centres undefined)
-2% | COc1ccc(N2CC(C(=O)NC3CC(C)(C)NC(C)(C)C3)CC2=O)cc1 (centres undefined)
-4% | COC(=O)COc1ccc(S(=O)(=O)N2CCc3ccccc3C2)cc1C
-4% | CNC(=S)Nc1cccc2[nH]ncc12
5% | N#CC1(NC(=O)Cn2ncc(Cl)c(Cl)c2=O)CCCCC1
-20% | O=C(NC1CCCCCC1)c1c(O)nc2sccn2c1=O
-13% | CCOc1cc(-c2cc(-c3ccc(C)o3)nc(N)c2C#N)ccc1O
0% | CC(NC(=O)[C@H](C)N1C(=O)N2CCc3c([nH]c4ccccc34)[C@@]2(C)C1=O)c1ccccc1 (some centres undefined)
-10% | Fc1cc(F)c2nc(Nc3nc4cc5c(cc4s3)OCO5)sc2c1
-1% | CC(C(=O)N1c2ccccc2Sc2ccccc21)n1nnc(-c2cccs2)n1 (centres undefined)
13% | COc1ccc(NC(=O)C2=C(C)C(=O)OC23CCC(C)CC3)cc1Cl (centres undefined)
-2%&13% | CCCC(=O)Nc1cccc(-c2cn3cccnc3n2)c1

The list goes on.
VDR inh | Compound
1% | CCn1c(C)nc2cc(C(=O)N/N=C/c3ccccc3C)ccc21
-6% | O=c1[nH]c2ccccc2nc1/C=C/c1ccc(F)cc1
11% | CC(=O)c1ccc(NC2CC(O)C(O)CO2)cc1 (centres undefined)
6% | COc1ccc(CNC(=S)NCc2ccc(F)cc2)cc1OC
-4% | Cc1ccccc1OCC(=O)Nc1ccc([N+](=O)[O-])cc1
-1% | CCOCCCNC(=O)c1cn(CC)c2ccc(S(=O)(=O)N(C)C3CCCCC3)cc2c1=O
1% | Cc1ccc(C)c(OCc2ccc(C(=O)NN)o2)c1
-23% | ONC(=Nc1ccccc1Cl)c1c(F)cccc1F
-1% | O=C(N/N=C/c1ccc(OC(F)F)cc1)c1cc[n+]([O-])cc1
14% | CCC(C)(C)C1CCC2(CC1)NC(=O)N(CC(=O)N(C)Cc1ccc3c(c1)OCCO3)C2=O (centres undefined)
-11% | CC(C)CN1C(=O)c2ccc(C(=O)NCc3ccccn3)cc2C1=O
2% | CC(=O)Nc1ccc(S(=O)(=O)N2CCN(c3ccc(C)c(Cl)c3)CC2)cc1
2% | CCC(=O)Nc1ccc(C(=O)NNC(=O)c2cc(OC)c(OC)c(OC)c2)cc1
3% | COC(=O)c1cnn(-c2nc3c(C)cccc3s2)c1C
-21% | CCc1c(C(=O)NNC(=S)NCc2ccccc2)csc1C
4% | NC(=O)N/N=C/c1ccccc1OCc1cccc2ccccc12
17% | c1ccc2scnc2c1
-7% | COc1ccc(OC)c(C(=O)CN2C(=O)C(=O)N(C3CCCC3)C2=O)c1
-17% | COC(=O)c1ccc(-n2cc(-c3ccc(OC)cc3)[nH]c2=S)cc1
-7% | CN(CCO)c1ncnc2nc[nH]c12
2% | OC(CNc1ccnc2cc(Cl)ccc12)CNC1CCCCC1 (centres undefined)
-5% | COc1cccc(C2C(C(=O)Nc3ccccc3OC)=C(C)Nc3nc(-c4ccco4)nn32)c1 (centres undefined)
1% | CCN(c1ccccc1)S(=O)(=O)c1ccc(OC)c(NC(=O)COc2ccc(C(C)=O)cc2)c1
0% | C/C(=N\NC(=O)c1cc(-c2ccco2)nc2ccccc12)c1cccnc1
3% | C[C@@H]1CC2C3CCC4=CC(=O)C=C[C@]4(C)[C@@]3(F)[C@@H](O)C[C@]2(C)[C@@]1(O)C(=O)COC(=O)c1cccc(S(=O)(=O)O)c1 (some centres undefined)
-21% | CCCC(=O)NCCc1c(I)[nH]c2ccc(OC)cc12
-2% | CC(C)Oc1ccc(S(=O)(=O)N2CCCCC2)cc1NC(=O)CN1C(=O)NC(C)(C2CC2)C1=O (centres undefined)
5% | CNS(=O)(=O)c1cccc(C(=O)OCC(=O)c2cc(C)n(-c3ccc4c(c3)OCO4)c2C)c1
5% | COc1ccc(C(=O)N2CCN(CCCc3ccccc3)CC2)cc1OC
0% | C=CCn1c(=O)[nH]c2cc(C(=O)N3CCN(c4cccc(Cl)c4)CC3)ccc2c1=O
? | COc1ccc2nc(N3C(=O)C(O)=C(C(=O)c4ccco4)C3c3ccc(C)o3)sc2c1 (centres undefined)
14% | Cc1ccc2oc(-c3ccccc3)c(C(=O)O)c(=O)c2c1
11% | CC(Oc1ccc(Cl)cc1Cl)c1nc(-c2ccc(NC(=O)c3cccnc3)cc2)no1 (centres undefined)
4% | O=C(NCc1cccnc1)C(C(=O)c1ccc(F)cc1)n1ccccc1=O (centres undefined)
-21% | Cc1ccc(C2=NS(=O)(=O)N(C)C(C(=O)N3CCCCC3)=C2)cc1
-1% | Cc1ccc2cc(CNC(C)C)c(=O)[nH]c2c1
3% | Cc1cc(OCC(=O)N(C(C)C)C(C)C)ccc1Cl
9% | NC(=O)c1cc2c(s1)-c1cc(Cl)ccc1SC2
-1%&-9% | COc1cc(NC(=O)c2ccccc2)ccc1NC(=O)c1cc2ccccc2o1
4% | CN1CCCC(C(=O)C(C#N)c2ccccc2)C1 (centres undefined)
5% | Cc1ccc(NC(=O)CCCSc2ccccc2)cc1S(=O)(=O)N1CCOCC1
-1% | CC(C)Cc1nnc(NC(=O)Cc2ccccc2[N+](=O)[O-])s1
-2% | CCCCn1c(SCC(=O)N2CCc3ccccc32)nnc1-c1ccncc1
9% | O=C(Cn1nc(-c2ccccc2)c2c(c1=O)CCCC2)Nc1ccc(F)c(Cl)c1
9% | O=C(CCN1C(=O)c2ccc([N+](=O)[O-])cc2C1=O)Nc1nccs1
-5% | Cc1ccc(S(=O)(=O)NNC(=O)Cc2cccn2C)cc1
4% | O=C(NCc1noc2ccccc12)Nc1ccc(F)cc1F
1% | COc1ccc(/C=N/NC(=O)Cn2cnc3c2c(=O)n(C)c(=O)n3C)c(OC)c1OC

Shown tab-delimited: part of the list above
SMILES	VDR inh
C=CCn1c(=O)[nH]c2cc(C(=O)N3CCN(c4cccc(Cl)c4)CC3)ccc2c1=O	0%
COc1ccc2nc(N3C(=O)C(O)=C(C(=O)c4ccco4)C3c3ccc(C)o3)sc2c1 (centres undefined)	?
Cc1ccc2oc(-c3ccccc3)c(C(=O)O)c(=O)c2c1	14%
CC(Oc1ccc(Cl)cc1Cl)c1nc(-c2ccc(NC(=O)c3cccnc3)cc2)no1 (centres undefined)	11%
O=C(NCc1cccnc1)C(C(=O)c1ccc(F)cc1)n1ccccc1=O (centres undefined)	4%
Cc1ccc(C2=NS(=O)(=O)N(C)C(C(=O)N3CCCCC3)=C2)cc1	-21%
Cc1ccc2cc(CNC(C)C)c(=O)[nH]c2c1	-1%
